# MT1-MMP act inh: blocks activation of human MT1-MMP; HT1080 RFP-PRO-GFP cells, GFP/RFP ratio fluorescence, overnight; percent of plate control window, DMSO zero; 0.061% of 360,000 active; P50281; GFP/RFP ratio change, % at 20 µM;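 active = GFP/RFP ratio change of at least 30% with cell ATP level not reduced by more than half and red fluorescence within 50% of control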; note: strong numbers were not always called active
#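 Assay system: HT1080 RFP-PRO-GFP cells. Benchmarks: DMSO vehicle wells and RFP-L50D-GFP reporter cell wells. Times: overnight cell settling, then overnight compound exposure, 37 °C, 5% CO2. Compound: 20 µM single dose, 1% DMSO. Read-out basis: GFP/RFP fluorescence ratio.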
# CSC inhib: blocks cancer stem cells. cancer stem cell-like cells viability, luminescence. 1.1% of 300,000 active. AID 2717. inhibition, % at 7.5 µM;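 active = mean at 75% or more and at least half the replicates too; inconclusive = mean and replicates disagree; tested in HMLE shEcad cells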;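 note: 0% = median of negative and 100% = median of positive control wells; the first replicate is given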
# HIV Env fusion: inhibitors of HIV Env-mediated cell fusion; inhibition, % at 12.3 µM; 1.1% of 360,000 active; HeLa-JRFL Env/CEM21 cell fusion, luciferase;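 active = mean replicate inhibition score of at least 50 and every replicate individually at or above 50; inconclusive = only one of the two criteria met; inactive = mean below 50 and not all replicates reaching 50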;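 note: 0% = plate neutral controls and 100% = maraviroc near 300 nM; one replicate is shown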
# Rce1 inhib: blocks yeast Ras-converting enzyme | 0.27% of 290,000 active | yeast membranes, quenched prenylated peptide cleavage fluorescence | calls only | Q03530;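 active = fall in fluorescence gain of 50% or more versus controls, with final raw signal at or below 3038400; inconclusive = same 50% fall but final raw signal above 3038400; inactive = fall in fluorescence gain under 50%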;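 note: plate controls were neutral control wells for no effect and wells lacking membranes for full effect; tested at 10 µM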
# Target sequence (Q03530 whole entry, looked up): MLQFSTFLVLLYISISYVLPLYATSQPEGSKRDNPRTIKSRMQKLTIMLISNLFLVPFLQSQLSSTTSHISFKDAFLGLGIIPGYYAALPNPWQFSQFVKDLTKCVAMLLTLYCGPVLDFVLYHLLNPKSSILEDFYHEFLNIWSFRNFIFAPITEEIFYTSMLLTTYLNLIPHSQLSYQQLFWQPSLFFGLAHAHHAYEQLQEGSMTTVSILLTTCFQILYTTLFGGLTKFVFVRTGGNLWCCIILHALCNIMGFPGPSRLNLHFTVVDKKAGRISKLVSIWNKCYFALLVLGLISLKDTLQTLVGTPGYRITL
# Yeast UUG start: alters start codon recognition fidelity in yeast | S. cerevisiae UUG-firefly luciferase reporter, luminescence/redox ratio | activity score, % at 18.7 µM | 0.13% of 350,000 active;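 active = replicate mean at a twofold rise or more, about +100% in these data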;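 note: firefly luciferase made from a UUG start codon reports start codon fidelity; reporter light over untreated wells divided by growth signal over untreated wells; some hits fall short of that in this replicate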
# PABP polyA inh: blocks human PABP binding to poly(A) RNA; P11940; fluorescence polarization; inhibition, % at 35 µM; 1% of 290,000 active;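 active = 50% or more with normal probe brightness, or confirmed in later tests; inconclusive = above 50% with abnormal brightness, or retests that disagree; inactive = below 50% or failed in later tests; about a fifth of its hits are not listed in these tables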;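 note: calls also rest on retests at 20 µM and on dose response follow-up; controls were probe without protein and protein plus probe with vehicle; some compounds called inactive have numbers as strong as hits; many hits fall short of the cut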
# eIF4H inh: inhibitors of RNA binding by human eIF4H. Q15056. 0.94% of 290,000 active. inhibition, % at 35 µM. AID 2012. eIF4H fluorescence polarization binding assay;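 active = 50% or more with normal probe brightness, or confirmed in later tests; inconclusive = above 50% with abnormal brightness, or retests that disagree; inactive = below 50% or failed in later tests; about a fifth of its hits are not listed in these tables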;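 note: calls also rest on retests at 20 µM and on dose response follow-up; 0% = protein and probe with vehicle and 100% = probe without protein; strong numbers were not always called active; many hits fall short of the cut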
# MT1-MMP act inh RFP: second read-out of MT1-MMP act inh, no call of its own (marks repeat the call); RFP signal change, %; measured here: RFP expression control read;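 0 = vehicle wells; hits needed this value within 50% of zero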
# An asterisk follows results filed as active; i = inactive; ? = inconclusive; . = not tested or not shown; & = joins results of further samples; [ ] = another dose, or the depositor's remark. Not all compounds are listed; count on the stated rates, not on these rows.
# Order of values: MT1-MMP act inh	MT1-MMP act inh RFP	CSC inhib	HIV Env fusion	Rce1 inhib	Yeast UUG start	PABP polyA inh	eIF4H inh
Cc1c(CC(=O)NCCCCCC(=O)O)c(=O)oc2c(C)c3oc4c(c3cc12)CCCC4
→ 12	3	-5	0	i	22	7	21
C[n+]1cc[nH]c1SCC(=O)c1ccccc1
→ 0	4	-13	.	i	.	27	-2
O=C(CN1CCN(Cc2ccccc2Cl)C1=O)NC1CCCCCC1
→ -1	-2	-10	.	i	0	-7	2
CC(C)(C)n1nnnc1C(c1cccnc1)N1CCN(c2cccc(C(F)(F)F)c2)CC1 (stereo not drawn)
→ 2	-3	-15	.	i	-5	-2	-2
COc1ccc(N(C(=O)Cn2nnc3ccccc32)C2(C(=O)NC3CCCC3)CCCCC2)cc1
→ -7	-3	.	?	i	.	4	-2
Cc1cc(C(=O)OCC(=O)Nc2cc(S(=O)(=O)N3CCOCC3)ccc2Cl)c(C)o1
→ -4	-2	-14	.	.	-19	6	10
Cc1nc2ccccc2n1CC(O)COc1ccc(Br)cc1 (stereo not drawn)
→ -1	-18	-4	26	i	.	0	-6
Nc1cc(=O)[nH]c(=O)n1CCc1ccccc1
→ 2	5	-8	-1	i	-7	12	1
CCCc1nnc(SCC(=O)Nc2nc(C)cs2)n1CCOC
→ 2	2	6	-12	i	-13	6	-1
Cc1ccc(C(=O)/C=C/Nc2ccc3c(c2)OCO3)cc1
→ 2	-7	-5	.	i	-31	-1	-5
O=C1SC(SC(=Nc2ccccc2)Nc2ccccc2)C(=O)N1c1ccccc1 (stereo not drawn)
→ 4&1	-6&-4	7	-6	i	.	-3	13
COc1ccc2sc(SCCCS(=O)(=O)O)[n+](CCCS(=O)(=O)[O-])c2c1
→ 1	1	3	.	i	-7	-2	3
CCc1nn(C(C)C(=O)NCc2cccc(Cl)c2)c(=O)c2cc3occc3n12 (stereo not drawn)
→ -2	-1	2	-7	i	-18	-2	-9
C/C(=N\NC(=O)Cc1cccc2ccccc12)c1ccncc1
→ 3	-4	-17	.	i	.	8	-1
COc1cc(Cl)ccc1NC(=S)N(CCN1CCOCC1)C1CCN(C(C)=O)CC1
→ 0	1	5	-44	i	.	-4	-4
CCc1ccc(OCc2nnc(NC(=O)c3cccs3)s2)cc1
→ 10	5	-9	.	i	-27	8	7
CCCCC(=O)Nc1ccc(C(=O)Nc2cc(C(F)(F)F)ccc2Cl)cc1
→ 0	-9	5	2	i	-3	2	0
CCOc1ncccc1C(=O)Nc1cccc(-c2nnc3n2CCCCC3)c1
→ 1	0	-4	16	i	-10	13	8
C[C@@H]1CN([C@@H](C)CO)S(=O)(=O)c2ccc(-c3ccccc3)cc2O[C@@H]1CN(C)Cc1ccccc1C(=O)O
→ 7	7	.	-10	.	2&7	.	.
Cc1c(C(=O)N(Cc2ccccc2)Cc2cccnc2)cnn1-c1ccc(F)cc1
→ -1	4	-22	-11	i	.	-8	-8
CCCCCC(=O)Nc1ccc2ccccc2c1
→ 9	3	-3	-44	i	.	-6	-1
O=C(C[C@H]1C=C[C@@H](NC(=O)Cc2cccnc2)[C@@H](CO)O1)NCc1ccc2c(c1)OCO2
→ -2	4	.	1[16.7 µM]	.	3	.	.
c1ccc2nc(N3CCCC3)c(N3CCCCC3)nc2c1
→ 4	-2	.	22	.	5	.	.
Cc1cc(OCC(=O)NCc2ccncc2)c2c(C)cc(=O)oc2c1
→ -3	3	1	16	i	-12	4	-11
O=C(O)c1ccc(F)c(S(=O)(=O)Nc2ccccc2Cl)c1
→ 4	1	7	.	.	.	-5	-5
COc1cccc(-c2sc3ccc(OC)cc3c2-c2ccc(OCCN(C)C)cc2)c1
→ -2	-3	104*	1	.	-1	.	.
COc1ccc(C(=O)N(CC2CCCO2)C(C(=O)NC2CCCC2)c2ccc(Cl)cc2)cc1OC (stereo not drawn)
→ 2	0	-2	9	i	8	-7	-10
Cc1ccc(C)c(Cn2nc(-c3ccccc3)ccc2=O)c1
→ -4	-8	-3	1	i	-7	2	4
O=C(Nc1nnc(C2CC2)s1)c1cc(S(=O)(=O)N2CCN(c3ccccc3)CC2)ccc1Cl
→ 10	-1	8	9	i	-10	-9	-22
CC(=O)c1c(C)[nH]c(C(=O)N2CCCC(C)C2)c1C (stereo not drawn)
→ 5	2	-7	14	i	-5	-2	2
O=C(NCCCN1CCOCC1)c1ccccc1-c1ccccc1
→ 3	-2	-3	-43	i	22	5	-7
Cc1ccc(S(=O)(=O)N2CC[C@@H]2C(=O)O)cc1
→ 0	2	0	0	.	-6	.	.
COc1ccccc1N1C(=O)CSC1=NC(=O)c1ccccc1
→ 1	27	-3	-12	i	.	-13	-9
Cc1csc(C(C#N)C(=O)c2cc3ccccc3o2)n1 (stereo not drawn)
→ 3	-3	33	-142	i	-6	5	-8
O=C(OCc1nnc(-c2ccccc2)o1)c1cc(=O)c2ccccc2o1
→ -1	2	-12	.	i	-14	3	2
CCCCN1C(=O)CCC(C(=O)O)C1c1ccc([N+](=O)[O-])cc1 (stereo not drawn)
→ 1	4	3	-2	i	-12	-8	-8
COc1ccc(NC(=O)c2cc(N3C(=O)C4C5CCC(C5)C4C3=O)ccc2Cl)c(OC)c1 (stereo not drawn)
→ 2	-3	8	-4	i	-5	-2	-12
COc1nnc(-c2ccc(N3CCOCC3)c(NC(=O)C3CCCCC3)c2)c2ccccc12
→ -9	-6	-7	-18	i	-14	17	9
Cc1cc(C)n(C(=O)c2ccc(S(=O)(=O)N3CCCC3)cc2)n1
→ 0	2	13	.	i	-10	2	2
COc1cccc(CNc2ncc(C(=O)Nc3cc(OC)c(OC)c(OC)c3)c(C)n2)c1
→ -5	-13	35	0	i	-19	-1	0
COc1ccc(/C=N/NC(=O)CNC(=O)c2ccc(S(=O)(=O)N3CCCC3)cc2)c(OC)c1
→ -1	2	-11	14	i	.	2	-2
CC1(C)C(=O)Nc2ccccc2N1C(=O)COC(=O)c1cccnc1
→ -4	3	.	64*	.	-8	.	.
COc1ccc(/C=N/NC(=S)NCCc2ccccc2)cc1
→ 5	-2	-6	10	i	-15	-1	0
CCCn1c(SCCc2ccccc2)nc2c1c(=O)[nH]c(=O)n2C
→ 1	3	-6	.	i	7	2	3
COc1ccc(C(=O)NNC(=O)C2(C)CC2(Br)Br)cc1 (stereo not drawn)
→ -4	1	-4	-11	i	-24	-4	-2
Cc1ccc(C(=O)N2CCN(c3ccc(NC(=O)CSc4ccc(Cl)cc4)cc3)CC2)cc1
→ 1	-1	14	-6	i	-6	8	2
O=C(CNCCC1=CCCCC1)Nc1ccccc1N1CCCCC1
→ -4	-3	24	14	i	-16	7	-9
N#Cc1c(/N=C/c2cc3ccccc3s2)sc2c1CCC2
→ 0	10	4	-142	i	-13	10	36
CCC(C(=O)NCc1ccccc1OC)c1ccccc1 (stereo not drawn)
→ 3	1	7	-5	.	.	2	0
O=C(Cn1ccc(NC(=O)OCc2ccccc2)nc1=O)NCCCc1ccccc1
→ 1	0	-12	13	.	-17	.	.
CC(=O)NC1=NN(C(C)=O)C(c2ccccn2)S1 (stereo not drawn)
→ 1	7	-14	-5	i	.	12	7
CCOc1ncccc1C(=O)OCC(=O)c1ccc(Cl)s1
→ 1	4	8	.	i	3	1	-4
Cc1onc(-c2ccccc2)c1C(=O)N/N=C(\N)COc1ccc(Cl)cc1
→ 6	1	1	20	i	-35	-4	-3
O=C(C[n+]1cc(Br)cc(Br)c1)c1ccc(Cl)cc1
→ 6	9	-1	-5	i	-29	6	4
Cc1ccc(OCCN2C(=O)OC(C)(C)C2(C)O)cc1 (stereo not drawn)
→ 4	2	-21	-22	i	15	-6	-2
CCCNC(=O)c1noc2c1CCc1ccccc1-2
→ 3	0	-6	-66	i	0	3	-1
CN(C)C(=O)COC(=O)c1ccccc1Nc1ccc(SC(F)F)cc1
→ -2	1	36	-26	i	.	-9	-5
COc1ccc(Nc2nnc(-c3ccc(C)cc3)c3ccccc23)cc1C(=O)N1CCCCC1
→ 1	-11	-7	-26	i	0	4	-2
O=C(NCc1ccc(F)cc1)c1cc(C2CCCN(C(=O)C3CCCCC3)C2)on1 (stereo not drawn)
→ 5	-4	.	4	.	-9	.	.
CC(C)CN(CCCNC(=O)CN1C(=O)COc2ccc(S(=O)(=O)N3CCC(C)CC3)cc21)CC(C)C
→ -2	1	-7	-2	i	-7	9	-1

# Continued:
# Order of values: MT1-MMP act inh	MT1-MMP act inh RFP	CSC inhib	HIV Env fusion	Rce1 inhib	Yeast UUG start	PABP polyA inh	eIF4H inh
Fc1cccc(Cl)c1CNCCCSc1ncccn1
→ -6	2	5	5	i	-7	19	6
CCCCn1nc(-c2ccccc2)c2nc3ccccc3nc21
→ .	.	0	.	i	.	?	?
CC(NC(=O)C1CCCN(S(=O)(=O)c2ccc(-n3cnnn3)cc2)C1)c1ccc(F)cc1 (stereo not drawn)
→ -38	-29	2	23	i	-13	-9	-10
CC1CC(=O)NN=C1c1ccc(N(C)C)c([N+](=O)[O-])c1 (stereo not drawn)
→ 6	-2	1	73*	i	-7	-12	2
Cc1ccc(OCC(O)Cn2c(=N)n(CCN3CCCCC3)c3ccccc32)cc1 (stereo not drawn)
→ 3	0	23	-29	i	-15	11	0
Cc1cc(=O)[nH]c(SCc2ccc(Cl)cc2Cl)n1
→ -2	-5	-14	12	i	-6	13	-12
Cc1cc(N2C(=O)CC(Cc3ccccc3)C2=O)no1 (stereo not drawn)
→ 7	9	-5	.	i	-3	8	-1
NC(=N\N=Cc1ccco1)/C(N)=N/N=Cc1ccco1
→ 2	5	.	-22	.	-22	.	.
c1ccc2c(c1)ncn2-c1ccc(-c2ccnc3ncnn23)cc1
→ 5	0	-10	0	i	.	0	-5
CN(C(=O)c1cccc(NC(=O)Cc2ccc(NC(=O)C3CCCN(C(=O)C4CCCC4)C3)cc2)c1)C1CCCC1 (stereo not drawn)
→ -1	-6	.	-7	.	-1	.	.
Cc1ccc(C2=NN(C(=O)CCCC(=O)O)C(c3ccco3)C2)cc1 (stereo not drawn)
→ -1	4	10	0	i	.	-1	5
CC(C)Oc1ccc(/C(O)=C2/C(=O)C(=O)N(CCCn3ccnc3)C2c2cccnc2)cc1 (stereo not drawn)
→ 2	6	-6	-4	i	.	10	-4
N#Cc1ccccc1OCC(=O)NCCNC(=O)COc1ccccc1C#N
→ -2	1	-7	-3	i	12	.	.
CCCOC(=O)CCCCC1SCC(NC(=O)OC)C1NC(=O)OC (stereo not drawn)
→ -2	0	-3	.	i	-2	-10	-10
CCOc1ccccc1NC(=O)CCc1c(C)nn(-c2ccc(N3CCCCC3)nn2)c1C
→ 7	-2	11	-6	i	.	-8	1
CCOC(=O)C1=C(C)N=C2c3ccccc3C(=O)C2C1c1ccccc1 (stereo not drawn)
→ 5	-1	13	-61	.	21	10	-7
COc1ccc(C(=O)NCc2ccc(-c3nc4ccccc4s3)cc2)cc1OC
→ 1	1	26	.	i	-11	10	-7
CCC1(c2ccccc2)NC(=O)N(Cc2cccc([N+](=O)[O-])c2)C1=O (stereo not drawn)
→ 2	0	5	10	i	.	-4	0

# Sorted by the number under Yeast UUG start (largest number first): 3 of the compounds above
structure,Yeast UUG start
N#Cc1ccccc1OCC(=O)NCCNC(=O)COc1ccccc1C#N,12
Cc1cc(N2C(=O)CC(Cc3ccccc3)C2=O)no1 (stereo not drawn),-3
Cc1cc(=O)[nH]c(SCc2ccc(Cl)cc2Cl)n1,-6
